Source: PubChem
H5N1 CPE: MDCK cell protection from H5N1 avian flu | inhibition, % at 50 µM | hit rate 0.07% among 96,000 | cytopathic effect, luminescence, 72 h; hits give high values; no value below 0 was filed and about half of the inactive calls have no number; reference of the scale not given here; in the data active means inhibition above about 25%
The depositor's hits bear a star; i = inactive. An excerpt; rates above refer to the full screens.

The first five records, to show the layout:
SMILES	H5N1 CPE
Cc1ccccc1-c1nnc(SCC(=O)NCc2ccc3c(c2)OCO3)n1C	i
CN(C)C(=O)CSCc1c(Cl)cccc1Cl	0.1
C=CCSc1nnc(-c2sc(-c3ccccc3)nc2C)n1C	i
Clc1ccc(-c2noc(CN3CCCC3)n2)cc1	0.8
O=C1C(=C(O)c2ccccc2)C(=O)c2ccccc21	i

Results, from the start:
SMILES	H5N1 CPE
Cc1ccccc1-c1nnc(SCC(=O)NCc2ccc3c(c2)OCO3)n1C	i
CN(C)C(=O)CSCc1c(Cl)cccc1Cl	0.1
C=CCSc1nnc(-c2sc(-c3ccccc3)nc2C)n1C	i
Clc1ccc(-c2noc(CN3CCCC3)n2)cc1	0.8
O=C1C(=C(O)c2ccccc2)C(=O)c2ccccc21	i
N#Cc1cccc(NC(=O)N2CCC(c3nc4c(nnn4Cc4cccc(Cl)c4)c(=O)[nH]3)CC2)c1	i
O=C(c1ccc(Cl)cc1)c1ccc(OCC(O)CN2CCOCC2)cc1 (stereo unspecified)	1.8
COC(=O)c1cccnc1-n1c(=O)c2cccnc2n(Cc2ccc(Cl)cc2)c1=O	i
CCn1c(CSc2nc3ccccc3s2)nnc1SCC(N)=O	i
O=C(Cc1cccs1)Nc1ccc(S(=O)(=O)N2CCCCC2)cc1	i
COc1ccc(C2CC(c3ccc(Cl)cc3Cl)Nc3nc(N)nn32)cc1 (stereo unspecified)	i
COc1ccc(N2CCN(C(=O)Nc3cccc(C(F)(F)F)c3)CC2)cc1	i
CCCn1cc(SCC(=O)Nc2ccc3c(c2)OCO3)c2ccccc21	2.1
CCn1c(SCC(=O)Nc2nc(C)cs2)nnc1C(NC(=O)c1ccccc1Cl)C(C)C (stereo unspecified)	0.4
O=C(CSc1nnc(-c2cnccn2)n1Cc1ccco1)c1ccc2ccccc2c1	2.0
CC(=O)NC1(C(F)(F)F)C(=O)Nc2c1c(=O)[nH]c(=O)n2Cc1ccco1 (stereo unspecified)	i
CCOc1ccccc1N1CCN(C(=O)c2ccccc2)CC1	0.2
CC1(C(=O)N2CC3(CC(c4cccc([N+](=O)[O-])c4)=NO3)C[C@H]2C(=O)NCC(N)=O)CC1 (stereo partly specified)	i
Cc1cc([N+](=O)[O-])c(N2CCC[C@@H]2C(=O)O)c([N+](=O)[O-])c1	0.1
CCOC(=O)c1ccc(NC(=O)COc2ccc(S(=O)(=O)N3CCCC3)cc2)cc1	i

In another format: six of the compounds above.
structure | H5N1 CPE
Cc1ccccc1-c1nnc(SCC(=O)NCc2ccc3c(c2)OCO3)n1C | i
O=C(Cc1cccs1)Nc1ccc(S(=O)(=O)N2CCCCC2)cc1 | i
Cc1cc([N+](=O)[O-])c(N2CCC[C@@H]2C(=O)O)c([N+](=O)[O-])c1 | 0.1
O=C1C(=C(O)c2ccccc2)C(=O)c2ccccc21 | i
COc1ccc(N2CCN(C(=O)Nc3cccc(C(F)(F)F)c3)CC2)cc1 | i
CC1(C(=O)N2CC3(CC(c4cccc([N+](=O)[O-])c4)=NO3)C[C@H]2C(=O)NCC(N)=O)CC1 (stereo partly specified) | i

Following part:
SMILES	H5N1 CPE
O=C(NC1CCCCC1)C(c1ccncc1)N(Cc1ccccc1)C(=O)c1ccc(-c2ccccc2)[nH]1 (stereo unspecified)	1.1
c1cncc(CNc2nc(N3CCOCC3)nc(N3CCOCC3)n2)c1	1.0
CCOC(=O)CSc1nnc(CNc2ccccc2Cl)n1-c1ccccc1	i
CCOC(=O)C1/C(=N\O)CC(C)(O)C(C(=O)OCC)C1c1ccc(N(C)C)cc1 (stereo unspecified)	i
COc1cccc(CNC(=O)c2ccc3nc[nH]c3c2)c1	0.9
S=c1[nH]nc(-c2cc(-c3ccco3)[nH]n2)n1-c1cccc2ccccc12	1.2
CSCC[C@@H](Nc1nc(-c2ccccc2)nc2c1oc1ccccc12)C(=O)O	1.9
OC(COc1ccc(Br)cc1)CN1CCOCC1 (stereo unspecified)	i
C=CCn1c(=S)[nH]c2nc3c(cc2c1=O)COC(C)(C)C3	1.2
Cc1ccc(NC(=O)CN2C(=O)S/C(=C\c3cccn3-c3cccc(C(=O)O)c3)C2=O)c(C)c1	i
O=c1[nH]cnc2c1C(c1ccccc1[N+](=O)[O-])c1c(nc[nH]c1=O)O2	0.7
CCOC(=O)C1=C(C)NC(C)=C(C(=O)OCC)C1C(=O)OCC(=O)N1c2ccccc2CC1C (stereo unspecified)	i
COCCOC(=O)c1c(C)oc2ccc(OC(=O)N(C)C)cc12	i
O=C1CC(c2ccncc2)c2cc3c(cc2N1)OCO3 (stereo unspecified)	0.7
Cn1nnnc1SCSc1nnnn1C	0.2
Cc1nc2nc(SCC(=O)NCc3ccco3)nn2c(C)c1Cc1ccccc1	2.7
c1ccc(C(c2c[nH]c3ccccc23)c2c[nH]c3ccccc23)nc1	i
COc1cccc(NC(=O)C2C3C=CC4(O3)C2C(=O)N(C(C)C)C4C(=O)NC2CCCCC2C)c1 (stereo unspecified)	i
CN(CCOCCOc1ccc2ccccc2c1)Cc1ccccc1	i
COc1cc(C)c(Cl)cc1S(=O)(=O)NCCN1CCOCC1	i
Brc1ccc(-n2cccc2/C=N/n2cnnc2)cc1	i
CC1(C)CC(=O)C(C=Nc2ccccc2C(=O)O)=C(O)C1	1.7
Cc1cc(C)c(C)c(S(=O)(=O)N2CCN(CC(=O)NC(=O)NCc3ccccc3)CC2)c1C	0.3
CCc1ccc(-c2cc(C(F)(F)F)n3nc(C(=O)Nc4c(C)nn(Cc5ccccc5Cl)c4C)cc3n2)s1	i
Cc1ccc(-c2nc3cnccn3c2Nc2c(C)cccc2C)o1	1.3
O=C(C1CCN(S(=O)(=O)c2cccc3cccnc23)CC1)N1CCn2c1nc1ccccc12	2.4
Cc1cc(-c2ccc(Cl)s2)n[nH]1	i
CCc1nc(NC(C)C)c2oc3ccccc3c2n1	i
COc1cc(C(=O)O/N=C2\CCCc3c2ccc(OC)c3[N+](=O)[O-])cc(OC)c1OC	i
CCCCCCn1c(CN2CCN(C)CC2)nc2c1c(=O)n(C)c(=O)n2C	2.2
CCCC(=O)Nc1ccc(C)c(O)c1	i
Cc1ccc(NC(NC(=O)c2cccs2)C(Cl)(Cl)Cl)cc1C (stereo unspecified)	0.2
CC(=O)c1ccc(OCC(O)CN(C)Cc2cccs2)cc1 (stereo unspecified)	i
CCN(CC)C(=O)CSCc1cnn(-c2ccccc2)c1-n1cccc1	i
Cc1ccc(/C=c2\sc3nc(-c4cccs4)nn3c2=O)o1	0.9
O=C(c1cnn2c(C(F)(F)F)cc(-c3ccc(Br)cc3)nc12)N1CCOCC1	1.0
O=c1cc(Cl)[nH]c(=O)n1CCNc1ncc(C(F)(F)F)cc1Cl	i
COCCCNC(=O)Cn1cc(C(=O)C2CC2)c2ccccc21	1.0
CC(=O)N1CN2CN(C(C)=O)CC(C(=O)c3ccccc3)(C2)C1	i
COc1ccc(-c2noc(CCC(=O)NCC3CCN(Cc4cccc(C)c4)CC3)n2)cc1	i
Cc1ccc2c(CN3C(=O)NC(C)(c4ccc5c(c4)OCO5)C3=O)cc(=O)oc2c1 (stereo unspecified)	2.0
Cc1ccc2c(c1)CC1(CN2C)C(=O)NC(=O)N(CCc2ccccc2)C1=O (stereo unspecified)	0.7
Cc1ccc(-c2c(C#N)c(N)nc3c2CCCCC3)cc1	i
COc1cccc(NC(=S)N2CCN(C/C=C/c3ccccc3)CC2)c1	i
O=C(CCN1C(=O)C2C3C=CC(C3)C2C1=O)NCCN1CCCc2ccccc21 (stereo unspecified)	0.2
CCOC(=O)N1CCN(C(=S)Nc2cc(OC)c(OC)cc2C(=O)OC)CC1	i
Cc1ccccc1OCc1nnc(SCc2cc(=O)[nH]c3ccccc23)o1	i
CC12CC(c3ccccc3O1)C(C(=O)NCc1ccccc1)C(=O)N2 (stereo unspecified)	0.8
CCOC(=O)CN1C(=O)CSc2ccccc21	i
S=c1[nH]nc(-c2cccc(Br)c2)o1	i
COc1ccc(N2CCN(C(=O)CNC(=O)c3ccc(C(C)(C)C)cc3)CC2)cc1	2.1
CCOc1c(N2CCCCC2)c(=O)c1=O	0.0
Cc1ccc(NS(=O)(=O)c2cc(C(=O)N3CCN(C)CC3)ccc2C)cc1	0.3
Nc1nnc(SCC(=O)N2CCN(Cc3ccccc3)CC2)s1	i
Cc1ccc(CCNC(=O)C2CCN(S(=O)(=O)N3CCC4(CC3)OCCO4)CC2)cc1	0.1
Cc1cc2oc(=O)cc(CN3CCC(C)CC3)c2cc1Cl	1.9
COCCNC(=O)c1snc2ccc(Cl)cc12	1.3
Cc1cc(Cl)ccc1OCCCC(=O)N1CCN(C(=O)c2ccco2)CC1	i
Cc1ccc2nc(SCC(=O)Nc3cc(C(F)(F)F)ccc3N3CCOCC3)[nH]c2c1	i
O=C(NCc1ccco1)c1ccc(CS(=O)(=O)Cc2ccc(Cl)cc2)o1	1.0

The results go on:
SMILES	H5N1 CPE
CN(C)C(=O)N1CCC(C(=O)NCc2cccs2)CC1	0.3
COc1ccc(Br)cc1CNC(=O)CCc1nc(-c2ccc(C)cc2)no1	0.9
COc1ccccc1C(=O)NCC1CCN(c2ccc(S(=O)(=O)N3CCOCC3)cc2)CC1	0.6
CCn1c(SCC(=O)N2CC(=O)Nc3ccccc32)nnc1-c1ccoc1C	i
CCOC(=O)C1CCCN(CCC(C)c2ccccc2)C1 (stereo unspecified)	0.6
Cc1ccc(NC(=O)/C(=C/c2ccco2)c2ccccc2)c(C)c1	0.6
O=C(Nc1nc2ccccc2[nH]1)c1ccccc1	i
CCOC(=O)NC1CCS(=O)(=O)C1 (stereo unspecified)	0.3
COc1cc(CN2CCN(C(=O)CC(C)C)CC2)cc(OC)c1OC	i
COc1ccc(NS(=O)(=O)c2ccc(NC(=O)C(C)(C(F)(F)F)C(F)(F)F)cc2)nn1	i
O=C(CN1C(=O)NC2(CCCCCCC2)C1=O)N1CCOCC1	i
CC(=O)OC1COC(n2ccc3ccccc32)C(OC(C)=O)C1OC(C)=O (stereo unspecified)	0.2
CCOC(=O)C1CCCN(C(=O)CN2C(=O)C(CC)Oc3ccc(C)cc32)C1 (stereo unspecified)	1.3
Cc1ccc(CSc2nnc(-c3cccnc3)n2N)cc1	0.3
CCn1c(SCC(=O)Nc2cc(C)on2)nc2c(c1=O)SC(C)C2 (stereo unspecified)	0.3
Cc1nnc(Oc2ccccc2F)c2ccccc12	1.1
O=C(Nc1ccc2c(c1)OCCO2)c1cccc(S(=O)(=O)N2CCCCC2)c1	i
O=C1c2ccccc2-c2ncnc3c(N4CCOCC4)cc(N4CCOCC4)c1c23	1.9
CCCCc1nnc(NC(=O)C2CCCO2)s1 (stereo unspecified)	i
Cc1ccc(S(=O)(=O)N/N=C/c2cn(C)nc2C)cc1	i

By substructure, the compounds so far containing a cyano group (2)
SMILES	H5N1 CPE
N#Cc1cccc(NC(=O)N2CCC(c3nc4c(nnn4Cc4cccc(Cl)c4)c(=O)[nH]3)CC2)c1	i
Cc1ccc(-c2c(C#N)c(N)nc3c2CCCCC3)cc1	i

Continuation.
SMILES	H5N1 CPE
CN(C1CCCCC1)S(=O)(=O)c1ccc(NC(=O)CCC(=O)O)cc1	i
O=C(c1cc2cc3ccc(Cl)cc3nc2o1)N1CCC2(CC1)OCCO2	1.4
O=C(c1c(F)cccc1F)N(Cc1ccccn1)C1CCCC1	0.3
CCCCCC(=O)Nc1ccc(Cl)cn1	i
O=S(=O)(N/N=C\c1ccc2c(c1)OCO2)c1ccc(Cl)cc1	i
CCOc1ccc(NC(=O)c2cccc3c2C(=O)N(Cc2cccnc2)C3)cc1	i
Cc1ccc(OCC(=O)N/N=C/c2ccco2)cc1	0.2
Cc1nn(-c2ccccc2)c2sc(C(=O)NNC(=O)COc3cccc4ccccc34)cc12	i
COc1cc(C2C(C#N)=C(N)N(c3cccnc3)C3=C2C(=O)CCC3)ccc1O (stereo unspecified)	0.2
COc1ccc2c(c1)C(NC(C)=O)C(=O)N2C (stereo unspecified)	0.6
COc1ccc(CN(C(=S)Nc2ccccc2)C2CC(=O)N(c3ccc(F)cc3)C2=O)cc1 (stereo unspecified)	i
O=C(c1ccc([N+](=O)[O-])cc1)N(Cc1ccc(Cl)cc1)N1C(=O)CCCC1=O	i
CC(C)c1ccc(NC(=O)COC(=O)C2=COCCO2)cc1	0.7
CC(C(=O)O)c1n[nH]c(=O)c2ccccc12 (stereo unspecified)	i
CCOC(=O)c1cccc(NC(=O)CCS(=O)(=O)c2ccc(Br)s2)c1	0.5
CCn1c(C(=O)NCc2ccccn2)cc2sccc21	i
Cc1cc(NC(=O)C2CCCC2)nc2c1c(=O)oc1ccccc12	i
CCOC(=O)CSc1ccc2nnc(-c3cccnc3)n2n1	6.7
Cc1ccc(S(=O)(=O)N2CCCC2C(=O)Nc2ccc(O)cc2)cc1 (stereo unspecified)	0.5
COc1cccc(C(=O)Nc2cccc(C(=O)N3CCOCC3)c2)c1	i
Cc1csc(NC(=O)C(Cc2ccccc2)n2cccc2)n1 (stereo unspecified)	i
Cc1ccc(NC(=O)c2ccc(-n3cccn3)c([N+](=O)[O-])c2)cc1	i
O=C(NCC1CCCO1)NC12CC3CC(CC(C3)C1)C2 (stereo unspecified)	i
O=C(OCc1cc(Cl)ccc1OC(F)F)c1cc(S(=O)(=O)O)ccc1O	i
CCn1c(SCC(=O)Nc2nccs2)nnc1-c1ccc(S(=O)(=O)N2CCCCC2)cc1	4.0
CNNC(=O)C(C)NC(=O)c1ccc(Br)cc1 (stereo unspecified)	0.4
C=CCN1C(=O)c2ccccc2Sc2ccc(C(=O)N3CCN(C)CC3)cc21	0.5
O=C(Nc1ccc(N2CCOCC2)cc1)c1cccc(S(=O)(=O)N2CCCC2)c1	0.7
O=C(CSc1nc(Cc2ccccc2)nc2ccccc12)c1ccc2c(c1)OCCO2	i
O=S(=O)(NC1CC1)c1ccc(S(=O)(=O)N2CCc3ccccc32)cc1	i
Cc1ccccc1Cn1cnc2c(nnn2Cc2ccc(F)cc2)c1=O	i
CCCNc1nc(C)c(C(C)=O)cc1C#N	0.4
